NPYLR7 ag = agonists of mosquito NPYLR7 receptor, primary screen, cell-based, Aedes aegypti, calcium fluorescence, mosquito biting behavior; Aedes aegypti neuropeptide Y-like receptor 7 (NPYLR7); HEK293T NPYLR7/Galpha15, GCaMP6s calcium fluorescence; activation, % at 10 µM; 0.15% of 270,000 active; AID 1259423, 2018; in the data active = activation above about 40%;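 note: 0% = vehicle and 100% = reference agonist at the receptor; some compounds past the cut are filed as inactive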
NPYLR7 ag max-min = further read-out of NPYLR7 ag, marked with its call; activation, %; measured here: Max-Min RFU normalised activation; some inactives read as strong as hits;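 span of the calcium signal over five minutes; 0% = vehicle and 100% = native peptide agonist; compound fluorescence can raise it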
Active calls of the source: *; & = joins results of further samples. This is a subset (hit frequency here may not be typical).

SMILES	NPYLR7 ag	NPYLR7 ag max-min
CC(=O)Oc1c(-c2ccc(NC(=O)c3ccco3)cc2)c(C2CC2)nn1-c1cccc(F)c1	-3	0
Cc1nn(C)c(Cl)c1CN1CCN(c2nsc3ccccc23)CC1	-1	-2
CCSc1ccc(-c2cccc([N+](=O)[O-])c2)nn1	-2	-2
O=C(CCSc1ccccc1)N(CCn1cccn1)c1nc2c(F)cccc2s1	-15	-20
C#CCNC(=O)C(Cc1ccccc1)N1CC2=C(C1=O)C(c1ccccc1C(F)(F)F)NC(=O)N2CC=C (stereo unspecified)	-2	4
COc1ccccc1NC(=O)CCN1C(=O)c2ccccc2C1=O	-6	-10
COc1ccc(OCC(O)CN2c3ccccc3CC2C)cc1 (stereo unspecified)	6	3
Cc1cnccc1NCCn1ccnc1-c1ccc(CO)o1	-4	-4
Cn1c(=O)n(C)c2cc(Cn3cc(C4CC=CCC4)nn3)ccc21 (stereo unspecified)	3	2
O=c1cc(C2CCCN(Cc3cc4n(n3)CCCNC4)C2)nc[nH]1 (stereo unspecified)	0	-8
CC(CNC(=O)c1cccc2[nH]ncc12)CC1(C)OCCO1 (stereo unspecified)	2	1
CCn1nc2c(cc1=O)CN(Cc1nc(CCOC)no1)CC2	2	2
Cc1nc2scc(C)n2c(=O)c1NC(=O)C(c1ccccc1)c1ccccc1	9	2
Cc1ccc(NC(=O)CSCCC(=O)Nc2cc(C)ccc2C)cc1	-1	0
CC(C)c1cc(C(=O)N(C)Cc2n[nH]c3c2CCCCC3)nc2ncnn12	-1	-3
CC1CCCN(S(=O)(=O)c2ccc(Cl)s2)C1 (stereo unspecified)	3	5
O=[N+]([O-])c1cc(C(F)(F)F)cc([N+](=O)[O-])c1C1=C(N2CCOCC2)CCC1	18	11
Cc1ccc(OCC(=O)N=Nc2c(O)[nH]c3ccc(F)cc23)cc1	-4	4
CCN(CC)C(=S)SCC(=O)Nc1ccc([N+](=O)[O-])cc1Br	-4	-11
C=CCn1c(=O)c(C(=O)Nc2ccccc2C(N)=O)c(O)c2ccccc21	-7	-9
O=C(NN=C1C(=O)c2cccc3cccc1c23)c1nn(-c2ccccc2)c(=O)c2ccccc12	0	0
Cc1ccccc1C1CCN(C(=O)CCNC(=O)C2CC2C)C1 (stereo unspecified)	-1&-2	-1&-2
COC(=O)[C@@H]1C[C@@H](NC(=O)CN2CCCCCCC2)CN1C	12	9
O=C(NCc1ccco1)c1cc2cc([N+](=O)[O-])ccc2oc1=O	-13	-19
O=C(CN1C(=O)CSC1c1cccs1)N1CCOCC1 (stereo unspecified)	9	8
More compounds:
SMILES	NPYLR7 ag	NPYLR7 ag max-min
Cc1c(C(=O)NCc2cccc(C(F)(F)F)c2)sc(=O)n1Cc1ccccn1	-10	-3
CCCCC(O)CN(Cc1ccco1)Cc1c(C)nn(-c2ccccc2)c1Oc1cccc(C)c1 (stereo unspecified)	-6	0
Fc1ccc(OCc2nnc3n2NCCS3)c(F)c1	23	11
c1cnc(N2CCC[C@H]2c2nc(-c3ccnc(N4CCOCC4)c3)no2)nc1	-6	-14
Cc1ccc2cccc(C(=O)N(C)Cc3cccc(C(N)=O)c3)c2n1	12	8
CCOCCn1c(N2CCCC(C)C2)nc2c1c(=O)[nH]c(=O)n2C (stereo unspecified)	-6	4
COc1cc(C)c(S(=O)(=O)N2CCC3(CC2)NCCNC3=O)c(C)c1C	16	11
O=C(CCc1cnccn1)N1CCCC(CO)(CCc2ccccc2)C1 (stereo unspecified)	0	-6
O=C(COc1cccc(C(F)(F)F)c1)NCCCn1nc(-c2ccccc2)ccc1=O	0	-3
CC(C)(C)c1ccc(C(=O)Nc2cc(C(=O)Nc3cccc(C(F)(F)F)c3)ccc2N2CC3CC(C2)c2cccc(=O)n2C3)cc1 (stereo unspecified)	-5	1
Cc1ccc2cc(S(=O)(=O)NCCCN3CCOCC3)ccc2c1	-1	5
COc1ccc(-c2cccc(-c3ccc(NC(=O)[C@H](C)OC(C)=O)cc3)n2)cc1	-3	-4
O=C(O)C(Cc1ccco1)n1ccnc1-c1cccnc1 (stereo unspecified)	0	-1
COc1cc(C=C(C#N)C(N)=S)ccc1O	19	18
O=C(NC1CCc2[nH]ncc2C1)c1csc2nc(-c3ccccc3)cn12 (stereo unspecified)	25	9
CCS(=O)(=O)c1ccc2oc(=S)n(CN3CCN(c4ncccn4)CC3)c2c1	-3	-9
CCOc1ccc(C=C2C(=O)c3ccccc3C2=O)cc1OC	13	6
COc1ccc(C(C)=O)cc1CN1C(=O)C(C)(C)ON=C1c1ccc2c(c1)OCO2	4	5
C=CCOc1c(OC)ccc2c1CN(CC1CC1)C(=O)CCN2C[C@@H](O)COCc1ccccc1	1	3
CCCc1c(C(=O)N2CCCC2)cnn1-c1ccc(Cl)cc1	-1	10
COc1ccc(C)cc1N1CC(C)Cn2c1nc1c2c(=O)n(C)c(=O)n1C (stereo unspecified)	2	-3
Cc1ccc(C)c(S(=O)(=O)Nc2ccc(Nc3nc(C)cc(N4CCCCC4)n3)cc2)c1	5	-1
CCCCN(Cc1cccn1C)C(=O)CN(CCC)C(=O)c1ccccc1Cl	6	13
CCOC(=O)C1(C)CCN1C(=O)c1cc(OC)c(OC)c(OC)c1 (stereo unspecified)	-2	-1
O=c1ccccn1Cc1nc(-c2cc(Br)cs2)no1	16	11

An excerpt from above in order of formula weight, lowest first:
SMILES	NPYLR7 ag	NPYLR7 ag max-min
COc1cc(C=C(C#N)C(N)=S)ccc1O	19	18
O=C(O)C(Cc1ccco1)n1ccnc1-c1cccnc1 (stereo unspecified)	0	-1
Fc1ccc(OCc2nnc3n2NCCS3)c(F)c1	23	11
CCCc1c(C(=O)N2CCCC2)cnn1-c1ccc(Cl)cc1	-1	10
Cc1ccc2cccc(C(=O)N(C)Cc3cccc(C(N)=O)c3)c2n1	12	8
CCOC(=O)C1(C)CCN1C(=O)c1cc(OC)c(OC)c(OC)c1 (stereo unspecified)	-2	-1
O=c1ccccn1Cc1nc(-c2cc(Br)cs2)no1	16	11
Cc1ccc2cc(S(=O)(=O)NCCCN3CCOCC3)ccc2c1	-1	5
O=C(CCc1cnccn1)N1CCCC(CO)(CCc2ccccc2)C1 (stereo unspecified)	0	-6
O=C(NC1CCc2[nH]ncc2C1)c1csc2nc(-c3ccccc3)cn12 (stereo unspecified)	25	9
COc1ccc(C)cc1N1CC(C)Cn2c1nc1c2c(=O)n(C)c(=O)n1C (stereo unspecified)	2	-3
c1cnc(N2CCC[C@H]2c2nc(-c3ccnc(N4CCOCC4)c3)no2)nc1	-6	-14
CCCCN(Cc1cccn1C)C(=O)CN(CCC)C(=O)c1ccccc1Cl	6	13
Cc1c(C(=O)NCc2cccc(C(F)(F)F)c2)sc(=O)n1Cc1ccccn1	-10	-3
COc1ccc(C(C)=O)cc1CN1C(=O)C(C)(C)ON=C1c1ccc2c(c1)OCO2	4	5
CCS(=O)(=O)c1ccc2oc(=S)n(CN3CCN(c4ncccn4)CC3)c2c1	-3	-9
Cc1ccc(C)c(S(=O)(=O)Nc2ccc(Nc3nc(C)cc(N4CCCCC4)n3)cc2)c1	5	-1
CCCCC(O)CN(Cc1ccco1)Cc1c(C)nn(-c2ccccc2)c1Oc1cccc(C)c1 (stereo unspecified)	-6	0

More compounds.
SMILES	NPYLR7 ag	NPYLR7 ag max-min
CN(Cc1ccccc1C(F)(F)F)C(=O)Cc1cccc(O)c1	19	13
CCN(CC)C(=O)CN1CCOC(c2cc(F)c(Cl)cc2Cl)C1 (stereo unspecified)	6	4
Cc1ccc(CCCC(=O)N2CCS(=O)(=O)CC2C)s1 (stereo unspecified)	0	0
Cc1noc(C)c1S(=O)(=O)N1CCC(CO)(CCCc2ccccc2)CC1	8	8
O=C(NCCCC(=O)N1CCC(n2nc(-c3ccccc3)cc2-c2ccccc2)CC1)OCc1ccccc1	-2	-6
CCC1CCC(N(C(=O)C2CC=CCC2)C2CC2)CC1 (stereo unspecified)	6	2
Cc1ccc(C(=O)Nc2cc(C(C)(C)C)ccc2O)cc1S(N)(=O)=O	3	18
Cc1ccc2nc(-c3ccccc3F)c(NC(=O)CCC3CCCC3)n2c1	-6	-4
Cc1cccc2oc(=O)n(C3CCN(C(=O)c4ccc([N+](=O)[O-])o4)CC3)c12	20	11
COc1ccc(-n2cc(CNCc3cnc4ccccn34)c(-c3ccccc3Cl)n2)cc1	0	2
COC(=O)c1cn(C(=O)c2cc(C)cc(C)c2)c2ccccc12	-5	-9
COC(=O)Cn1c(Cl)nc2c1c(=O)n(C)c(=O)n2C	4	0
Cc1cccc(C2(O)CCN(C(=O)c3ccc(N(C)C)cc3)CC2)c1C	-1	-3
Nc1nnnn1/N=C\c1cc(Cl)cc(Cl)c1OCc1ccc(Cl)cc1Cl	-16	-21
COc1ccccc1NC(=O)C1=C(C)N=C(SCC(N)=O)C(C#N)C1c1ccoc1 (stereo unspecified)	-2	-7
O=C(CSc1nc2[nH]ncc2c(=O)[nH]1)Nc1ccc(C(F)(F)F)cc1	0	1
N#Cc1ccc(-n2ccc(CN3CCN(C(=O)/C=C/c4ccoc4)CC3)c2)cc1	-3	-2
COc1ccc(-c2cccc(NS(=O)(=O)c3cc(C)c(OC)c(C)c3C)c2)nn1	-7	-7
CC(C)(C)C1CCc2c(sc(NC(=O)c3cnn4c(C(F)(F)F)cc(-c5ccc(Br)cc5)nc34)c2C#N)C1 (stereo unspecified)	-4	-1
O=C(Nc1ccc(O)c(-c2nc3cc(Cl)ccc3o2)c1)c1ccc(Cl)c([N+](=O)[O-])c1	-2	-8
COc1ccc(NC(C)=O)cc1NC(=O)/C=C/c1ccc(C)s1	14	4
CC(Oc1ccc(Cl)cc1)C(N)=NO (stereo unspecified)	-1	-2
O=c1c[n+]([O-])c2ccccc2n1OCc1ccc(Cl)cc1	-3	-5
O=C(c1c(O)c2ccc(Cl)cc2[nH]c1=O)C1CC1	8	-3
CNc1nn(CC(=O)NCc2ccccc2Cl)c(N)c1-c1nc(-c2ccc(C)cc2)no1	-1	-3
Following part.
SMILES	NPYLR7 ag	NPYLR7 ag max-min
O=C(c1cc2c(s1)CCCCC2)N1Cc2cnn(CCO)c2C1	-3	-2
Cn1c(=NN=Cc2cc3c(cc2[N+](=O)[O-])OCO3)sc2ccccc21	-2	-3
CCOC(=O)C1CCN(C(=O)c2csc(CSc3nnc(-c4ccccc4Cl)n3-c3ccccc3F)n2)CC1	-5	1
COc1ccc(CN(CCN2CCCCC2)S(=O)(=O)c2ccccc2)cc1OCc1nc(CO)cs1	-11	-4
CCCCOC(=O)c1ccc(NC(=O)CN2C(=O)c3ccccc3C2=O)cc1	-4	-8
CC(C)[C@@H](CO)Nc1nccc2[nH]c(-c3ccco3)nc12	-6	-10
Cc1ccc(C(=NC(=O)N(C)C2CCCCC2)C(Cl)Cl)cc1F	-1	-6
O=C(NCCc1ccc(F)cc1)N1CCC(CN2C(=O)c3ccccc3C2=O)CC1	4	3
CCc1ccc(C(C)NC(=O)c2ccccc2S(C)=O)cc1 (stereo unspecified)	1	-2
CN(C(=O)c1cc(F)c(Cl)nc1Cl)c1ccc(-c2onc3c2CCC3)cc1	22	24
CCN1CCN(C(C)C(=O)Nc2cccc(C#N)c2)CC1 (stereo unspecified)	7	4
COc1cccc(NC(=O)NNC(=O)c2ccc(=O)n(Cc3ccc(C)cc3)c2)c1OC	3	1
O=C(NCc1ccc(Cl)cc1Cl)Nc1ccc2nc([C@H]3C[C@H](O)[C@@H](CO)O3)[nH]c2c1	-3	-9
Cn1c(=O)n(C)c2cc(CNC(=O)Cc3noc4ccccc34)ccc21	15	14
O=C1C2C3CC(C(Br)C3Br)C2C(=O)N1c1ccc2ccccc2c1 (stereo unspecified)	-5	-12
CSc1ccccc1NC(=O)CCC(=O)N1CCCN(C(=O)C2CC2)CC1	-10	-12
NS(=O)(=O)c1ccc(N2CCN(S(=O)(=O)c3ccc4c(c3)CCCC4)CC2)nc1	6	5
COc1cc(C2c3c([nH]c(=O)[nH]c3=O)N=C3CCCC(=O)C32)cc(OC)c1OC (stereo unspecified)	3	1
CS(=O)(=O)c1ccc(NC(=O)C(c2ccccc2)c2ccccc2)cn1	13	8
COc1ccc(S(=O)(=O)Oc2cccc(CN(Cc3ccco3)C(=O)NC(C)(C)C)c2)cc1	2	8
CC(O)c1ccc(-n2cncn2)cc1Cl (stereo unspecified)	0	-1
CCC(CO)N(Cc1ccc(F)cc1)Cc1cccc(C)n1 (stereo unspecified)	1	-1
COc1cccc(C(=O)Nc2c3c(nn2CC(=O)NCc2ccccc2)CSC3)c1	-4	3
O=C(CCC1CCCN(C(=O)c2cccs2)C1)Nc1ccc(C(F)(F)F)cc1 (stereo unspecified)	16	3
CC(C)c1ccc(Nc2ncc3c(n2)CCN(C(=O)Nc2ccc(N(C)C)cc2)C3)cc1	-4	-6
(cont.)
SMILES	NPYLR7 ag	NPYLR7 ag max-min
COc1cccc(NC(=O)N2CCCN(c3nc(Cc4ccc(F)cc4)ns3)CC2)c1	0	3
CC(C)(C)c1ccc(S(=O)(=O)N2CCC3(CC2)C(=O)N(CC(=O)N2CCCC2)CN3c2ccccc2)cc1	16	21
CCCn1c(=O)c2c(nc3n(-c4ccc(Cl)cc4)c(C)c(C)n23)n(C)c1=O	2	1
Cc1cc(NC(=O)c2cccc(CN3CCNC(=O)C3)c2)n(C)n1	-8	-10
COCC(c1ccccn1)N(C)C(=O)c1cccc(-n2nc(C)cc2C)c1 (stereo unspecified)	-2	0
Cc1c(C(=O)NC(C)c2cccc(Cl)c2)oc2c1C(=O)CCC2 (stereo unspecified)	6	2
COc1cccc(Cc2nsc(N3CCCN(C(=O)Nc4cccc(C)c4)CC3)n2)c1	-5	2
